From PubChem BioAssay
PMP22 txn = modulates PMP22 transcription in S16 Schwann cells. S16 Pmp22-F2sN Schwann cells (luciferase reporters placed in the Pmp22 gene), FLuc/NLuc coincidence luminescence, 24 h. Potency, µM (doses to about 57.5 µM), for inactives: at the top dose activity change, negative = inhibition, most hits filed as inhibitors. 2% of 43,000 active. AID 1508649; active = clear falling dose curves in both reporters; inconclusive = both reporters move, but less clearly or upward; inactive = either reporter flat; the % is the NLuc reporter signal; further: on the % scale 0 is the no-effect control and ±100 the full control effect; some results filed as inactive show a strong effect at the top dose
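Reporter cells (S16 Pmp22-F2sN, 500–1,000 per well) exposed to compounds for 24 h, 37C, 5% CO2; lysis with FLuc read after 10 min, then Stop&Glo and NLuc read after 10 min.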
HTT prom inh = inhibits huntingtin promoter activity. Potency, µM (doses to about 57.5 µM), inactives show top-dose activity change, negative = inhibition, most hits filed as inhibitors. 0.93% of 48,000 active. HEK293 HTT promoter firefly luciferase reporter (activity 0% = vehicle and -100% = no light), 24 h; active means well fitted inhibition curve with a large enough effect; inconclusive means small, poorly fitted or top-dose-only effect; inactive means no such curve, though single readings can be large or run the other way; further: nearly all actives have a fitted effect of over 50% in size
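HEK293 Fluc reporter, 2,500 cells/well, 24 h pre-culture; cpds up to 57.5 uM final, 24 h 37 degrees C; Dual-Glo, 10 min RT; normalized vehicle = 0%, zero RLU = -100%.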
Active calls of the source: *; ? = inconclusive; / = no result given; [ ] = dose if it differs, or a comment. Potency means the concentration at half of the fitted maximal effect.

Results follow in this order: HTT prom inh, PMP22 txn
CCC1(C)CC(=O)c2c(ccc3oc(C(=O)NCc4ccccc4)c(C)c23)O1 (stereo unspecified)
 : 18.3%, ?
CCC12CN3CC(CC)(CN(C1)C3c1ccc(OCc3ccccc3)cc1)C2=O (stereo unspecified)
 : -3.2%, -14.2%
COc1cc(C(=O)NCCc2sc(-c3cccc(F)c3)nc2C)cc(OC)c1OC
 : -18.3%, ?
Cc1ccccc1C(=O)N1CCC(C(=O)Nc2ccc(F)cc2F)CC1
 : -12.0%, 1.8%
COc1ccc(CNC(=O)Cn2c(=O)oc3cc(S(=O)(=O)N4CCC(C)CC4)ccc32)cc1
 : ?, ?
CCCCN(C)CCCNC(=O)c1cc(-c2cccnc2)nc2ccccc12
 : -20.9%, -15.1%
COc1cc2c(cc1OC)n(Cc1ccc([N+](=O)[O-])cc1)c(=O)n1nc(-c3ccccc3)nc21
 : -8.5%, -12.5%
Cc1cc(OI)c(C(C)C)cc1-c1cc(C(C)C)c(OI)cc1C
 : 10.7%, /
CC1=C(C(=O)OCC2CCCCC2)C(c2ccc(F)cc2F)CC(=O)N1 (stereo unspecified)
 : ?, ?
Cc1cccc(Cn2c(SCc3ccc(C(=O)NCc4ccccc4F)cc3)nc3ccncc32)c1
 : ?, ?
CSc1ccc(CCNC(=O)CCc2c(C)nc3c4cccnc4nn3c2C)cc1
 : -17.1%, -24.8%
O=C(CCNS(=O)(=O)c1ccc2c(c1)CCN2C(=O)C1CC1)N1CCN(c2cccc(C(F)(F)F)c2)CC1
 : 28.2µM*, ?
COc1cc(C2CC(=O)c3c([nH]c(C(=O)OCC4CCCCC4)c3C)C2)cc(OC)c1OC (stereo unspecified)
 : ?, 5.66µM*
Cc1c2oc3c(C)ccc(C(=O)N[C@@H]4C(=O)N[C@H](C(C)C)C(=O)N5CCC[C@H]5C(=O)N(C)CC(=O)N(C)[C@@H](C(C)C)C(=O)O[C@@H]4C)c3nc-2c(C(=O)N[C@@H]2C(=O)N[C@H](C(C)C)C(=O)N3CCC[C@H]3C(=O)N(C)CC(=O)N(C)[C@@H](C(C)C)C(=O)O[C@@H]2C)c(N)c1=O
 : -38.4%, /
COc1cc(C(=O)NCC(c2cccs2)S(=O)(=O)c2cccs2)cc(OC)c1OC (stereo unspecified)
 : -11.1%, -0.8%
CCN1CCCC1CN (stereo unspecified)
 : -9.7%, /
Cc1ccc(CN(Cc2ccco2)C(=O)COc2cc(C)c(Cl)c(C)c2)cc1
 : ?, ?
COc1c(C)c2c(c(O)c1CC=C(C)CCC(=O)O)C(=O)OC2
 : -22.8%, /
Cc1ccc(CNC(=O)CCc2nc3cccnc3n2Cc2ccccc2)cc1
 : -13.7%, -16.0%
Cc1cccc(OCC(=O)Nc2ccc(-c3nc4ccccc4o3)cc2)c1C
 : 14.6%, ?
Cc1nc2cccnc2n1C1CCN(C(=O)Nc2ccc(Cl)cc2)CC1
 : 9.4%, ?
CCCCN(CCCC)CCCNC(=O)c1cc(-c2ccc(Cl)s2)nc2ccccc12
 : -18.2%, ?
Cc1ccc(NS(=O)(=O)c2ccc3[nH]c4c(c3c2)CCCCCC4)cc1C
 : ?, ?
CCc1ccc(-n2c(=O)c3cccnc3n2CC(=O)N(CC)c2cccc(C)c2)cc1
 : ?, -29.8%
Cc1ccc(C2=Nc3ccccc3N(CC(=O)NCc3ccccc3Cl)C(=O)C2)cc1C
 : 50.8%[activator], ?
Cc1c(C(=O)N2CCCC2)oc2c1-c1nn(CC(=O)NC(C)c3ccccc3)cc1CC2 (stereo unspecified)
 : ?, ?
CCn1c(=O)c2cc(C(=O)NCCc3ccc(Cl)cc3)sc2c2ccccc21
 : 6.2%, -26.8%
COc1ccccc1NC(=O)Cn1c(=O)n(CCCCCC(=O)NCc2ccccc2)c(=O)c2sccc21
 : -11.8%, ?
CCOC(=O)C(=O)Nc1nnc2n1CCS2
 : -8.9%, 11.6%
Cc1cccc(NC(=O)c2sc(-n3nc(C)c(CCC(C)C)c3C)nc2C)c1C
 : -2.7%, -12.1%

Next records.
Results follow in this order: HTT prom inh, PMP22 txn
CCSc1ncc(Cl)c(C(=O)Nc2ccc(S(=O)(=O)N3CCCCC3CC)cc2)n1 (stereo unspecified)
 : ?, -3.2%
CCn1cc(S(=O)(=O)c2ccc(C)cc2C)c(=O)c2cc(F)c(N3CCCC3)cc21
 : ?, 15.7%
COc1ccccc1Nc1c2c(nc3ccc(NC(=O)c4ccc(OC)c(OC)c4)cc13)CCCC2
 : -11.2%, ?
Cn1nc(C(=O)Nc2ccccc2C#N)c2c1-c1ccccc1SC2
 : -10.2%, -2.2%
O=C1CCCc2cc(S(=O)(=O)NCC3CCC(C(=O)Nc4ccccc4F)CC3)ccc2N1 (stereo unspecified)
 : ?, 6.7%
Cc1cc(C)c(NC(=O)Cn2nnc(C(=O)NCc3cccs3)c2N)c(C)c1
 : -14.3%, -4.1%
Cc1ccc(CNC(=O)CCNS(=O)(=O)c2ccc3c(c2)oc(=O)n3C)cc1
 : -11.6%, -13.4%
CCN(CC)c1cc(C)c2cc(NC(=O)c3cc(OC)cc(OC)c3)ccc2n1
 : -3.6%, ?
CCOc1ccccc1NC(=O)CCS(=O)(=O)c1ccc2c(c1)oc(=O)n2C
 : -16.4%[11.5 µM], -16.5%
CCC(=O)N1CCc2cc(Br)cc(S(=O)(=O)CCC(=O)NCc3ccc(F)cc3)c21
 : -8.4%, -2.7%
Cc1ccc(C(=O)CSc2nc(C)cc(C)c2C(=O)Nc2cccc(C)c2)cc1
 : ?, -36.3%
CCOc1ccc(CCNC(=O)Cn2nnc(-c3ccc(C(F)(F)F)cc3)n2)cc1OCC
 : -0.5%, -3.2%
Cn1c(Oc2cccc(Cl)c2)nc2c1c(=O)n(Cc1ccccc1Cl)c(=O)n2C
 : -8.7%, -12.0%
N#Cc1nc(COc2cccc(Cl)c2)oc1NCCc1ccccc1
 : 1.5%, -52.2%
Cc1cc(C)c2sc(NC(=O)c3ccc(S(=O)(=O)N4CCOCC4)cc3)nc2c1
 : ?, -9.5%
CCOc1ccc(NC(=O)CCCN2C(=O)C(c3ccccc3)Oc3cccnc32)cc1 (stereo unspecified)
 : -15.4%, -27.1%
COc1ccc2c(c1)NC(c1ccc(OCC(C)C)cc1)=NC(c1ccncc1)=N2
 : -19.0%, -9.7%
CC(=O)c1cc(C(=O)Nc2cc(C)cc(C)c2)c2ccccn12
 : 19.7%, -16.3%
COc1ccc(-c2c(C#N)c(SCC(=O)Nc3ccccc3C)nc(C)c2C(=O)Nc2ccc(Cl)cc2)cc1
 : -27.9%, -2.8%
CCOc1ccc(NC(=O)CSc2nc3ccccc3c(=O)n2CCC(=O)NC2CCCCC2)cc1
 : -14.3%, -19.8%
COc1ccc(C(=O)Nc2ccc(-n3nncc3-c3ccccc3)cc2)cc1OC
 : -23.2%, -38.7%
COc1cc(OC)c(-c2cc(C(=O)NCc3ccc(F)cc3)c3c(-c4ccccc4)[nH]nc3n2)cc1OC
 : -22.4%, ?
O=C1Cc2cc(S(=O)(=O)N3CCCCC3)cc3c2N1CCC3
 : -16.4%, ?
CCOc1ccc(NC(=O)CC2C(=O)N(c3ccccc3)C(=O)N2Cc2ccc3c(c2)OCO3)cc1 (stereo unspecified)
 : -17.7%, 12.7%
CCc1ccc(NC(=O)CSc2nc3c(oc4ccccc43)c(=O)n2-c2cccc(C)c2)cc1
 : -18.8%, -9.0%
CC(C)(C)NC(=O)Cn1cc(S(=O)(=O)Cc2ccccc2Cl)c2ccccc21
 : 10.3%, -24.9%
COc1ccccc1-n1nc(-c2ccccc2)c2cnc3c(F)cc(F)cc3c21
 : -15.0%, ?
O=C(Cn1nnc(-c2ccccc2Cl)n1)Nc1ccc(Br)cc1
 : 11.4%, -19.5%
CCOC(=O)c1cnc2c(Cl)c(Cl)ccc2c1NCCN1CCOCC1
 : -15.6%, 8.7%
COc1ccc(-n2ncc3c(NCCC4=CCCCC4)ncnc32)cc1
 : -6.7%, ?

Full records from above. Values in the order: HTT prom inh | PMP22 txn
O=C1Cc2cc(S(=O)(=O)N3CCCCC3)cc3c2N1CCC3 in the list: -16.4% | ?
CCC(=O)N1CCc2cc(Br)cc(S(=O)(=O)CCC(=O)NCc3ccc(F)cc3)c21 in the list: -8.4% | -2.7%
O=C1CCCc2cc(S(=O)(=O)NCC3CCC(C(=O)Nc4ccccc4F)CC3)ccc2N1 (stereo unspecified) in the list: ? | 6.7%

Additional entries follow.
Results follow in this order: HTT prom inh, PMP22 txn
Fc1ccc(Nc2ncnc3c2nc2n3CCCCC2)c(F)c1
 : -11.1%, -2.9%
CCc1ccc(NC(=O)Cn2c(=O)n(CCC(=O)NCc3ccc4c(c3)OCO4)c(=O)c3ccccc32)cc1
 : -7.1%, ?
Cc1ccccc1-n1c(SCC(=O)c2ccccc2)nnc1-c1ccc(F)cc1
 : -36.1%, 17.9µM*
Cc1ccc(-c2nnc(Nc3ccc(S(N)(=O)=O)cc3)c3ccccc23)cc1S(=O)(=O)N1CCOCC1
 : -5.5%, -25.6%
O=C(NCCc1csc(-c2ccc(C(F)(F)F)cc2)n1)C(=O)Nc1ccc(F)c(Cl)c1
 : 1.5%, -23.5%
CCc1ccc(NC(=O)Cn2nc(C(F)(F)F)c3c2CCCC3)cc1
 : -21.2%, ?
COc1ccc2[nH]c(=O)c(CN(C(=O)c3cccc(Cl)c3)c3ccccc3C)cc2c1
 : -15.4%, -3.8%
CCOc1ccccc1CNC(=O)CN1C(=O)CCCc2ccccc21
 : 3.2%, 3.5%
CCC(C)n1c(=N)c(C(=O)NCc2ccco2)cc2c(=O)n3cc(C)ccc3nc21 (stereo unspecified)
 : 14.6%, ?
Cc1ccc(NC(=O)Cn2cnc3nc4c(cc3c2=O)CCCC4)cc1Cl
 : -3.5%, 23.1%
Cn1c(=O)c2c(nc(N3CCOCC3)n2Cc2cccc(Br)c2)n(C)c1=O
 : -17.9%, -6.4%
O=C(c1cccn1-c1nnc(N2CCCCC2)s1)N1CCN(c2ccccc2)CC1
 : -11.4%, -2.1%
COc1cc(-c2ccno2)ccc1S(=O)(=O)N1CCN(c2ccccc2F)CC1
 : -9.9%, -14.3%
COc1ccc(-n2c(-c3ccco3)nc3c(cnn3-c3ccc(C)cc3)c2=O)cc1
 : ?, ?
Cc1cccc(C)c1NC(=O)c1ccccc1C(=O)O
 : 6.8%, /
O=c1c(O)c(-c2ccc(O)cc2)oc2cc(O)cc(O)c12
 : 49.2%[activator], /
Cc1ccccc1C(=O)Nc1ccc2nc(SCC(=O)N3CCc4ccccc43)sc2c1
 : -14.5%, -11.3%
COc1cccc(N2CCN(C(=O)Cn3c(-c4cccs4)cc4ccccc43)CC2)c1
 : ?, ?
Cc1nc2ccccc2n1CCc1nc2c3ccccc3nc(SCc3ccccc3F)n2n1
 : 0.0%, 0.3%
COc1ccc(-c2cc3ccc(O)c(CN4CCCCC4C)c3oc2=O)cc1OC (stereo unspecified)
 : -4.0%, ?
COc1cc2c(=O)c(C(=O)c3ccc(C)c(C)c3)cn(Cc3ccccc3F)c2cc1OC
 : ?, 16.8µM*
CCN1C(=O)c2ccccc2Sc2ccc(NC(=O)c3ccc(C)c(F)c3)cc21
 : ?, ?
COc1ccc(N2CC(NC(=O)c3ccco3)CC2=O)cc1OC (stereo unspecified)
 : -8.3%, -2.0%
O=C(COc1ccc2ccccc2c1)NC1CC(=O)N(c2cccc(F)c2)C1 (stereo unspecified)
 : -10.3%, -1.8%
O=S(=O)(Nc1ccc(Cl)cc1)c1ccc(NS(=O)(=O)c2ccc3c(c2)OCCO3)cc1
 : ?, -4.0%
CCOc1ccc(C2C(C(=O)Nc3ccc(Cl)cc3)=C(C)Nc3nc(C(F)(F)F)nn32)cc1 (stereo unspecified)
 : ?, ?
Cc1cccc(-c2nc(SCC(=O)Nc3ccc4c(c3)OCO4)c(-c3ccccc3)[nH]2)c1
 : ?, ?
COc1ccc(N(C)C(=O)c2cn(C)c(=O)c3cc(OC)c(OC)cc23)cc1
 : -4.1%, -20.4%
CCOC(=O)c1ccc(-c2ccc(/C=C(\C#N)C(=O)Nc3cccc(C)c3)o2)cc1
 : 4.4%, ?
Cc1cccc(N2CCN(C(=O)c3oc(=O)c4ccccc4c3-c3ccccc3)CC2)c1C
 : -9.2%, 1.5%

Later entries
Results follow in this order: HTT prom inh, PMP22 txn
CCN1C(=O)c2ccccc2Sc2ccc(NC(=O)Nc3ccc(C(C)=O)cc3)cc21
 : ?, -13.0%
CCOc1ccc(CNC(=O)CSc2c3c(nc4ccc(Cl)cc24)CCCC3)cc1
 : -20.7%, ?
COc1ccccc1-c1cc(NC(=O)COc2ccc(C)c(C)c2)n(-c2ccccc2)n1
 : -13.1%, -26.1%
CC1CCN(S(=O)(=O)c2ccc3nc(N4CCN(c5ccccc5F)CC4)ccc3c2)CC1
 : -4.2%, -7.2%
COc1ccc(S(=O)(=O)N(CC(=O)NCCSc2ccccc2)c2ccc(Cl)cc2)cc1
 : ?, 6.7%
O=C(N/N=C/c1ccccc1O)c1ccncc1
 : -24.5%, /
CN1CCN(Cc2c(O)ccc3cc(-c4ccc(Cl)cc4)c(=O)oc23)CC1
 : -0.6%, -87.5%
CCOC(=O)c1ccc(NC(=O)c2cnc(N3CCCC3)nc2C)cc1
 : -20.7%, ?
CCOc1c(Br)cc(C2C=C(C(=O)O)Nc3ncnn32)cc1OC (stereo unspecified)
 : -8.5%, -6.1%
COc1ccc(C2NC(=O)N(C)C3=C2C(=O)N(c2ccc(Br)cc2)C3)cc1 (stereo unspecified)
 : -18.8%, -6.5%
